Assay outcomes from PubChem BioAssay.
VDR inh: inhibitors of human vitamin D receptor; P11473; VDR-SRC2-3 peptide fluorescence polarization, 2 h; Potency, µM, inactives show max response, negative = inhibition, most hits filed as inhibitors; hit rate 0.93% among 400,000; active means well fitted inhibition curve with a large enough effect; inconclusive means small, poorly fitted or top-dose-only effect, or another doubt; inactive means no such curve, though single readings can be large or run the other way; further: series mostly up to about 120 µM
Target sequence (P11473 whole entry, looked up): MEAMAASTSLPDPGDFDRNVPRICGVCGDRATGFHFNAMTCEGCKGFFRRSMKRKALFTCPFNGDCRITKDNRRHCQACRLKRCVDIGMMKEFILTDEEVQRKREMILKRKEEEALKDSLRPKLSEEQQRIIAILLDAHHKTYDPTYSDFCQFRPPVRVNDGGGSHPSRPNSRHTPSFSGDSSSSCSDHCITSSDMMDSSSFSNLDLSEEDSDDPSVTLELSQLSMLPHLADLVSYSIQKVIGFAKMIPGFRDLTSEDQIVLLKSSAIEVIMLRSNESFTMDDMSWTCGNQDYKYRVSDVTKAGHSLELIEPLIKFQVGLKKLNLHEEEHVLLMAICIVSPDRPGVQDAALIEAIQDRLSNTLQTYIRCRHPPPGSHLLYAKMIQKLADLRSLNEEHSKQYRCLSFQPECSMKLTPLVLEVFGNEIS
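After 23 nl compound addition and a short centrifugation, plates sat for 2 hours at ambient temperature; polarization of fluorescence then indicated loss of VDR binding to peptide SRC2-3.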
* = called active by the depositor; ? = inconclusive; & = joins results of further samples. On the % scale 0 is the no-effect control and ±100 the full control effect; potency means the concentration at half of the fitted maximal effect. Some of the compounds tested. The share of hits here may be higher or lower than overall.

SMILES	VDR inh
Cc1n[nH]c(C)c1CCOc1ccc(C(C)C)cc1	8.5%
O=C(NC1CCCC1)c1ccc2c(=O)n(Cc3ccccc3)c(SCc3cccc([N+](=O)[O-])c3)nc2c1	13.5%
CCCCSc1nsc(NC(C)=O)n1	-3.2%
CC1CN(C(=O)c2ccccc2Oc2ccccc2)CC(C)O1 (centres undefined)	-19.0%
COc1cc(OC)cc(C(=O)NNC(=O)CCCOc2ccccc2)c1	-14.0%
Cc1ccc(C)c(NS(=O)(=O)c2c(C)nc3sccn3c2=O)c1	-15.1%
CC(/C=C/C=C/c1ccccc1)=N/NC(=O)CNc1ccc(C)cc1	15.6%
CSCC[C@H](NC(=O)C1CCN(S(=O)(=O)c2ccc(C)cc2)CC1)C(=O)NCc1ccco1	-2.7%
CC(/C=N\NC(=O)c1cccnc1)c1ccccc1 (centres undefined)	11.2%
O=C(CSc1nc2c([nH]c3ccccc32)c(=O)n1-c1ccc(Cl)cc1)N1CCCC1	5.1%
O=C(/C=C/c1ccc(O)cc1)c1ccc(NC2=C(N3CCCCC3)C(=O)c3ccccc3C2=O)cc1	?
CCCS(=O)(=O)NCCc1cc2ccc(C)cc2[nH]c1=O	1.1%
N#Cc1c(-c2ccc(F)cc2)c(-c2ccc(F)cc2)nn(CCO)c1=O	-1.1%
CCOc1ccc(CCNC(=O)c2cc3sccc3n2CC)cc1OCC	2.3%&-0.9%
Cc1nn(C)c(Oc2cccc(Cl)c2)c1C(=O)Nc1ccc(F)cc1F	-19.4%
COc1ccccc1-n1c(=O)c2c3c(sc2n(C)c1=O)CN(C(C)=O)CC3	4.2%
Cc1onc(-c2ccccc2)c1CNC(=O)Nc1ccc(F)cc1F	-20.6%
C=CCn1c(=O)c(C(=O)Nc2ncccc2O)c(O)c2ccccc21	-13.0%
CCOC(=O)c1ccc2nc(NC(=O)c3ccco3)sc2c1	-6.0%
O=C(NC12CC3CC(CC(C3)C1)C2)c1ccc(-c2ccccc2Cl)o1	-18.3%
Cc1nnc(SC(C)C(=O)Nc2ccc(S(=O)(=O)NC3CCCCC3)cc2)s1 (centres undefined)	3.5%
O=C(CSCc1c[nH]c(=O)[nH]c1=O)OCC(=O)c1ccc(Br)cc1	-22.0%
COc1ccc(C(=O)Nc2nnc(C3=COCCO3)o2)cc1	-9.7%
Cc1nc(-c2ccc(C(=O)N3CCOCC3)cc2)cs1	5.0%
Fc1ccc2nc(-c3ccccc3)nc(SCc3nnc(-c4ccccc4)o3)c2c1	11.6%
O=C(/C=C/c1ccccc1)NC(NC(=S)Nc1cccc2cccnc12)C(Cl)(Cl)Cl (centres undefined)	1.5%
Cc1ccc(OC(C)C(=O)N2CC(=O)Nc3ccccc32)c(C)c1 (centres undefined)	11.1%
N#Cc1ccccc1OCC(=O)OCC(=O)N1CCN(C(=O)c2ccco2)CC1	-2.2%
CCOc1ccc(S(=O)(=O)NC(Cc2c[nH]c3ccccc23)C(=O)O)cc1 (centres undefined)	-17.6%
COC(=O)c1sc2cccc(F)c2c1S(=O)(=O)Nc1cc(C)c(Cl)cc1OC	11.7%

Single entries from the results shown:
In VDR inh, C=CCn1c(=O)c(C(=O)Nc2ncccc2O)c(O)c2ccccc21 has -13.0%
In VDR inh, Cc1ccc(OC(C)C(=O)N2CC(=O)Nc3ccccc32)c(C)c1 (centres undefined) has 11.1%

Carrying on.
SMILES	VDR inh
CC(=O)N1[C@H](C)C=C[C@]1(Cc1ccccc1)C(=O)NCCN1CCOCC1	3.5%
CCn1cc(C(=O)N2CCCc3ccccc32)c2cc(OC)c(OC)cc2c1=O	-14.7%
COc1cccc(N=Nc2c(=O)[nH]n3c(C)cc(C)nc23)c1	21.0%
CCCCC(=O)NC1(C(F)(F)F)C(=O)N(CC(C)C)C2=C1C(=O)CC(C)(C)C2 (centres undefined)	5.1%
Cc1ccc(C(C(=O)NC(C)(C)C)N(Cc2ccco2)C(=O)CCC(=O)Nc2ccccn2)cc1 (centres undefined)	-10.9%
O=C(Nc1ccccn1)c1ccc(S(=O)(=O)N2CCCCC2)cc1	16.6%
O=C(Nc1c(-c2ccccc2)nc2ccccn12)c1ccccc1F	-19.5%&-6.8%
COc1ccc(OC)c(/C=C2\SC(N3CCCCC3)=NC2=O)c1	18.5%
CCOC(=O)c1c(C)oc2nc(C)nc(NCCCN3CCN(c4cc(C)ccc4C)CC3)c12	21.1%
COc1ccnc(-n2cccc2C#N)c1C#N	-5.2%
COc1c(O[C@@H]2O[C@H](CO)[C@@H](O)[C@H](O)[C@H]2O)cc2c(c1OC)-c1ccc(SC)c(=O)cc1C(NC(C)=O)CC2 (some centres undefined)	-8.1%
COCc1ccc(-c2c(-c3cc(OC)cc(OC)c3)oc(=O)c3cc(OC)c(OC)cc23)cc1	-21.1%
Cc1ccc(NC(=O)c2oc3ccccc3c2C)nc1	0.9%
CCCCCCCCCCCCOCCOCCOCCOCCO	-3.2%&4.8%
O=C(CCS(=O)(=O)c1ccc(Br)s1)NCc1ccc2c(c1)OCO2	23.6%
Cc1cc(C)n(C(=O)CCN2C(=O)c3ccccc3C2=O)n1	6.7%
C=C1CC[C@@H]2[C@](C)(CO)[C@H](O)CC[C@@]2(C)[C@@H]1/C=C/C1=CCOC1=O	-3.0%&10.4%
CC(Sc1nnc(CN2CCCC2)n1Cc1ccccc1)C(=O)Nc1ccc(F)c(F)c1F (centres undefined)	6.4%
COCCCNC(=O)c1ccc(CSc2nc3cccnc3n2Cc2ccc(OC)cc2)cc1	16.2%
COc1cc(/C=N/OCC(=O)NC23CC4CC(CC(C4)C2)C3)ccc1OCc1ccccc1	1.0%
O=c1[nH]c2ccccc2s1	1.1%
CCOC(=O)c1nc(Nc2cccc(C)c2)c2ccccc2n1	-25.8%&12.6%
Cc1ccc(C2=CC(=O)C[C@H](c3ccc(Cl)cc3)C2)cc1	-10.8%
CN1CCN(C(=O)CSc2nc(-c3ccco3)cc(C(F)(F)F)n2)CC1	-1.8%
COc1ccc(OCCCCn2c(CO)nc3ccccc32)cc1	2.8%
CCOc1ccc(N/C(C)=C\C(=O)c2ccc3c(c2)OCCO3)cc1	-1.3%
O=C1CSC(c2ccccc2Cl)N1 (centres undefined)	7.8%
COc1ccc(NC(=O)C(C)N2c3cccc4cccc(c34)S2(=O)=O)cc1 (centres undefined)	3.9%
CC1CCc2noc(NC(=O)c3ccc([N+](=O)[O-])cc3)c2C1 (centres undefined)	20.0%
Cc1ccc2nc(SCC(=O)NC(=O)NCc3ccco3)[nH]c2c1	4.5%
CN(C)S(=O)(=O)c1ccc2c(c1)N(CC(=O)N1CCN(c3cccc(Cl)c3)CC1)CCS2	12.6%
O=C1CN(C(=O)COC(=O)CCc2ccccc2)c2ccccc2N1	1.1%
COc1cc(NC(=O)c2ccc(COc3ccccc3Br)o2)cc(OC)c1OC	-1.6%
COc1ccc(/C=C/C(=O)OCC(=O)Nc2ccc(N3CCOCC3)cc2)cc1OC	-5.4%
CCCN1CCc2c(sc(NC(=O)c3ccc(S(=O)(=O)N4CCN(C(=O)OCC)CC4)cc3)c2C(N)=O)C1	7.8%
COc1ccccc1-c1cccc([C@@H]2C[C@H]3[C@H](CON3C)CN2Cc2cc(Cl)cc(Cl)c2)c1	-4.8%
CC1CCCC(C)N1C(=O)CSc1nnc(-c2cccs2)o1 (centres undefined)	13.0%
O=C(Cc1cccc(NC(=O)C2CCCN(C(=O)C3CCCCC3)C2)c1)Nc1cccc(C(=O)N2CCOCC2)c1 (centres undefined)	-2.4%
CSc1ccccc1OCc1cc(C(=O)NCCc2ccco2)no1	-13.0%
CS(=O)(=O)N1CCN(c2ccc(NC(=S)NC(=O)c3ccccc3[N+](=O)[O-])cc2)CC1	5.4%
Cc1ccc(S(=O)(=O)N2CC3(C)CN(S(=O)(=O)c4ccc(C)cc4)CC(C)(C2)C3O)cc1 (centres undefined)	3.1%
C[C@]12CCC3c4ccc(O)cc4CCC3C1CCC2OC(=O)CCC1CCCC1 (some centres undefined)	3.3%
O=C(/C=C/c1ccco1)NCCCN1CCOCC1	-2.9%
Cc1cc(C)cc(NC(=O)C(CC(C)C)NC(=O)C2CCCCC2)c1 (centres undefined)	-20.6%
Cc1ccc(C)c(N2CCN(CCCc3ccccc3)CC2)c1	-6.0%
CCC(=O)N/N=C(\C)CC(=O)Nc1ccc2ccccc2c1	13.4%
CCOC(=O)c1ccccc1NC(=O)N1CCCN(S(=O)(=O)c2ccc3c(ccn3CC)c2)CC1	14.7%
O=C(c1cc(COc2ccc(F)cc2Cl)on1)N1CC2C[C@@H]3CC1C[C@H](C2)C3	-0.4%
CC1=CC(C)(C)N(C(=O)C(C)N2C(=O)c3ccccc3C2=O)c2ccc(C)cc21 (centres undefined)	-6.1%
O=C(N/C(=C/c1cccs1)C(=O)N1CCOCC1)c1cccs1	-4.1%
COc1ccc(N2CCN(C(=O)Cc3coc4cc(C)ccc34)CC2)cc1	-3.4%
Cc1ccc(C)c(S(=O)(=O)N=Nc2c(O)[nH]c3ccccc23)c1	-8.6%
CSc1nc2[nH]c(=O)n(O)c(=O)c2n1Cc1ccccc1	?
COCCn1c(SCC(=O)c2ccccc2)nc2c(c1=O)SCC2	14.0%
CCOc1ccccc1C(=O)Nc1ccc(S(=O)(=O)Nc2nc(C)cc(C)n2)cc1	-9.0%
O=C(N/N=C/c1ccc([N+](=O)[O-])s1)c1ccccc1Br	-6.1%
NC(=O)CC(NC(=O)Cc1cccc2ccccc12)c1ccc(N2CCCCCC2)c([N+](=O)[O-])c1 (centres undefined)	-5.4%
CC(C)OC(=O)c1ccc(COC(=O)c2cccc(-c3nnc(-c4ccccc4)o3)c2)cc1	2.3%
COc1ccc(CNc2nc(NC(C)=O)nn2-c2ccccc2)cc1	12.9%
CC(=O)N1CCCc2cc(S(=O)(=O)N3CCCC(C(=O)N4CCN(c5ccccc5F)CC4)C3)ccc21 (centres undefined)	0.8%
Going on with the list:
SMILES	VDR inh
O=C(COC(=O)Cc1c(F)cccc1Cl)NC1CCS(=O)(=O)C1 (centres undefined)	0.4%
O=C(NCc1ccccc1)C(c1ccncc1)N(C(=O)c1csnn1)c1ccccc1F (centres undefined)	0.6%
COc1ccc(N2CCN(C(=O)c3oc4ccccc4c3NC(=O)CCc3cc(OC)no3)CC2)cc1	-3.1%
COc1cc(NC(=S)Nc2cccc(C)n2)cc(OC)c1OC	?
COc1ccccc1CNC(=O)CCC1N=C2c3ccccc3N=C(SCc3ccc(C)cc3)N2C1=O (centres undefined)	7.6%
CCN(CC(=O)Nc1cccc(S(N)(=O)=O)c1)Cc1nc2ccccc2c(=O)[nH]1	-10.7%
CCOc1ccccc1NC(=O)Cc1ccccc1OC	-16.1%
Oc1c(Br)cc(Br)cc1CNc1ccc(F)cc1	-0.2%
CCCc1nn(C)c2c(=O)[nH]c(-c3ccccc3OCC)nc12	-14.8%
CCOC(=O)Cc1csc(NC(=O)CSc2nc(C)cc(=O)[nH]2)n1	44.7µM*
NC(=O)c1cccnc1Nc1ccccc1F	13.8%
O=C(Cn1ncc2c(=O)oc3ccccc3c21)NC1CC1	-5.6%
CC(=O)c1c(C)[nH]c(C(=O)Nc2cccc(C)c2C)c1C	-2.5%
Cc1cc(OCC(=O)Nc2c(C(=O)c3ccccc3)oc3ccccc23)cc(C)c1Cl	4.5%
O=S(=O)(NCc1ccc(Cl)cc1)c1ccc(N2CCCCS2(=O)=O)cc1	0.9%
C=CCNc1nc2c(c(=O)[nH]c(=O)n2C)n1CCCc1ccccc1	4.9%
CCCCNC(=O)C1CCCN(S(=O)(=O)c2ccc(S(=O)(=O)NCC(C)C)cc2)C1 (centres undefined)	8.9%
COc1ccc(-c2nc3cnc(N4CCNCC4)nc3n(-c3ccc(OC)cc3)c2=O)cc1	-3.7%
NC(=O)C1CCCN(CC(=O)Nc2ccccc2C(=O)NC2CC2)C1 (centres undefined)	6.4%
Cc1cc(NC(=O)C(C)Oc2ccccc2)no1 (centres undefined)	7.7%
COc1ccc(S(=O)(=O)NCCCC(=O)Nc2ccc(Sc3ccc(N)cc3)cc2)cc1	3.4%
COc1ccc(/C(C)=N/NS(=O)(=O)c2ccccc2)c(OC)c1	-0.3%
Cc1ccc(-c2nn3c(C)nnc3s2)cc1NC(=O)CSc1ccc(Cl)cc1	-10.6%
CCOc1cc(C#N)c(NC(=O)c2cccnc2Cl)cc1OCC	12.0%
CN1CCC(=O)N([C@H](CC#N)c2ccccc2)CC1	0.3%
O=C(NNC(=O)c1ccc2c(c1)OCO2)NC12CC3CC(CC(C3)C1)C2	-17.4%
CSc1ccc(C(c2c(C(=O)O)[nH]c3ccccc23)c2c(C(=O)O)[nH]c3ccccc23)cc1	-26.7%
COc1cc(NC(=O)C(CC(C)C)NS(=O)(=O)c2ccc3c(c2)oc(=O)n3C)c(C(=O)O)cc1OC (centres undefined)	-6.8%
Cc1nc2cc(-c3ccsc3-n3c(C)ccc3C)[nH]n2c(=O)c1Cl	-18.9%
Cc1nc2nc(C)c(NS(=O)(=O)c3ccc(CC(C)C)cc3)c(=O)n2[nH]1	-4.5%&-13.4%
COc1ccc(/C=C/C(=O)c2ccc(O)cc2O)cc1OC	?
CC(C)Oc1ccc(C(=O)N2CCN(C(=O)c3ccco3)CC2)cc1	-1.7%
COc1ccc(CNCCCSc2ncccn2)c(OC)c1	-5.3%

3 entries from above, set out differently:
Cc1ccc(-c2nn3c(C)nnc3s2)cc1NC(=O)CSc1ccc(Cl)cc1
  VDR inh = -10.6%

CCOc1cc(C#N)c(NC(=O)c2cccnc2Cl)cc1OCC
  VDR inh = 12.0%

CN1CCC(=O)N([C@H](CC#N)c2ccccc2)CC1
  VDR inh = 0.3%

4 of the entries above in order of their number in VDR inh, largest number first:
SMILES	VDR inh
C=CCNc1nc2c(c(=O)[nH]c(=O)n2C)n1CCCc1ccccc1	4.9%
CN1CCC(=O)N([C@H](CC#N)c2ccccc2)CC1	0.3%
O=C(NNC(=O)c1ccc2c(c1)OCO2)NC12CC3CC(CC(C3)C1)C2	-17.4%
CSc1ccc(C(c2c(C(=O)O)[nH]c3ccccc23)c2c(C(=O)O)[nH]c3ccccc23)cc1	-26.7%
